Mtb growth – Mycobacterium tuberculosis H37Rv growth inhibition, cell based, confirmatory dose response (AID 1949). most inactive calls were filed without a number and no value below 0 was filed. hit rate 1.6% among 100,000. one-dose inhibition, % at 10 µg/mL; IC50 in µg/mL for titrated hits;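 active = confirmed in a dose series; inconclusive = about 50% or more but not retested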;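 also: bacteria grown 7 days with compound before Alamar blue readout; 0% = untreated bacteria and 100% = reference antibiotic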
The depositor's hits bear a star; i = inactive; ? = inconclusive. An excerpt; rates above refer to the full screens.

Compound,Mtb growth
O=C(Cn1nnc2ccccc21)OCc1ccccc1Cl,i
Cc1cccc(NC(=O)CN2C(=O)c3cccc4cccc2c34)c1C,i
CC1CCN(Cc2nc(N)nc(Nc3ccc(Cl)cc3)n2)CC1,?
COc1ccc(/C(N)=N/OC(=O)c2ccc(Cl)cc2)cc1OC,6%
COc1ccc(NC(=O)Nc2nnc(C(c3ccccc3)c3ccccc3)s2)cc1,i
CC1=C(C)CC(C(=O)Nc2ccc3c(c2)oc2ccccc23)C(C(=O)O)C1 (centres undefined),34%
O=C(CC12CC3CC(CC(C3)C1)C2)NCCNc1ccccc1[N+](=O)[O-],i
O=S(=O)(NCc1cccc(CNS(=O)(=O)c2ccc(F)cc2)c1)c1ccc(F)cc1,1%

Later entries
Compound,Mtb growth
COC(=O)c1sc(N2C(=O)C(=O)/C(=C(/O)c3ccc(OC)c(C)c3)C2c2ccco2)nc1C (centres undefined),i
CC(C)c1ccc(C(=O)NCCCN(C)C)cc1,i
CCOc1ccc(NC(=O)Nc2ccccc2Sc2ccccc2)cc1,i
CCOc1ccc(-c2cc(C(=O)Nc3ccccc3C(F)(F)F)c3ccccc3n2)cc1,i
O=C(Nc1c(Cl)cccc1Cl)C1CCCCC1,49%
Cc1nc(-c2ccc(NC(=O)C3CCCCC3)cc2)cs1,i
O=S(=O)(Nc1ccc2oc3c(c2c1)CCCC3)c1cccc2cccnc12,5%
O=C(NC(=S)Nc1cc(C(F)(F)F)ccc1Cl)c1cc(Br)ccc1Cl,i

Remaining list, next part.
Compound,Mtb growth
O=c1c2c3nc4ccccc4nc3n(Cc3ccccc3)c2ncn1Cc1ccccc1,i
COc1cc(C(=O)Nc2ccc(I)cc2C(F)(F)F)cc(OC)c1OC,i
Cc1ccc(S(=O)(=O)N(CC(N)=O)Cc2c(F)cccc2Cl)cc1,i
Cc1cc(Br)cc(/C=C/c2[nH]c(=O)[nH]c(=O)c2[N+](=O)[O-])c1O,i
CCOC(=O)COc1ccc2c(=O)c(Oc3cnn(-c4ccccc4)c3)c(C)oc2c1C,?
CNC(=O)C1=C(C)NC(=S)NC1c1cc(OC)ccc1OC (centres undefined),i
COc1ccc(-c2csc3ncn(Cc4ccc(Br)cc4)c(=O)c23)cc1,24%
CC1CN(C(=S)c2ccc([N+](=O)[O-])cc2)CC(C)O1 (centres undefined),3%

(more compounds)
Compound,Mtb growth
Cc1cccc(OCCCCOc2cccc(C)c2)c1,1%
CC(=O)Nc1nc(-c2ccc(C)c(C)c2)cs1,i
COCCNC(=O)CN(Cc1ccccc1F)S(=O)(=O)c1ccc(C)cc1,i
CCCCOc1ccc(-c2nc(=S)[nH][nH]2)cc1,4%
CC(C)c1ccccc1OCC(=O)Nc1ccccc1F,i
CCOc1cc(S(=O)(=O)N2CCOCC2)ccc1F,0%
CN(C)C(=O)NC1c2ccccc2-c2ccccc21,i
O=S(=O)(NCCC1=CCCCC1)c1ccc2c(c1)OCCO2,i

An excerpt of these results, with each value named.
molecule: CCOc1cc(S(=O)(=O)N2CCOCC2)ccc1F
  Mtb growth: 0%
molecule: CN(C)C(=O)NC1c2ccccc2-c2ccccc21
  Mtb growth: i
molecule: CCCCOc1ccc(-c2nc(=S)[nH][nH]2)cc1
  Mtb growth: 4%
molecule: CC(C)c1ccccc1OCC(=O)Nc1ccccc1F
  Mtb growth: i

Next compounds follow.
Compound,Mtb growth
CCNC(=O)C(=O)Nc1ccc([N+](=O)[O-])cc1,i
Cc1nnc2n(c1=O)N=C(c1ccccc1)CS2,i
O=c1[nH]c(=S)c2c(n1-c1ccccc1)CCC2,0%
CCN(Cc1ccccc1)C(=O)c1ccccc1Br,3%
CCOc1ccccc1CC1(CCc2ccncc2)C(=O)N(C)C(=O)N(C)C1=O,i
Cc1cc(C)n2nc(-c3ccccc3)cc2n1,i
COc1ccc(/C(N)=N/OC(=O)c2ccc(Br)cc2)cc1OC,i
CC(C)NC(=O)C(=O)NCCN1CCN(Cc2ccccc2)CC1,i

(cont.)
Compound,Mtb growth
COc1cc2ccccc2cc1C(=O)NC(=S)NCc1cccnc1,i
COc1ccc(N/C(N)=N/c2nc3c(c(=O)[nH]2)CCCC3)cc1,i
COc1ccc(-c2csc3ncn(C(C)C(=O)O)c(=O)c23)cc1 (centres undefined),i
CCC(C)c1ccc(O)c(NC(=O)c2ncn[nH]2)c1 (centres undefined),5%
CN1CCN(c2ccc(NC(=O)c3cccc(Cl)c3Cl)cc2)CC1,i
O=C(NCc1ccco1)C1CC(=O)N(c2ccc(O)cc2)C1 (centres undefined),i
O=C(O)CCNc1nc(C(F)(F)F)nc2ccccc12,i
COc1cccc(CNc2ccc(Br)cc2C)c1OC,i

More structures:
Compound,Mtb growth
CC1(C)CC2CC(C)(CN2c2c[nH]c(=O)[nH]c2=O)C1 (centres undefined),i
O=C(Cc1cccs1)N1CCN(c2ncccn2)CC1,i
CCOc1ccc(Br)cc1C(=O)NC(C)c1ccccc1 (centres undefined),2%
COC(=O)C1=CN(C)C=C(C(=O)OC)C1c1cc(OC)ccc1OC,i
COc1cccc2cc(-c3cc4cccc(OC)c4oc3=O)c(=O)oc12,i
CC(C)c1ccc(OCC(=O)Nc2nc3ccccc3s2)cc1,i
Cc1cc(-n2cc(Br)c(=O)[nH]c2=O)nc(-c2ccccc2)n1,i
COc1ccc(C(=S)NC2CCCCC2)cc1,i

The results go on.
Compound,Mtb growth
CCOC(=O)c1sc2ncn(Cc3ccc(Br)cc3)c(=O)c2c1C,i
c1cc2nnnn2nc1N1CCCCCC1,1%
CC(C)(C)NC(=O)COc1ccc(CNc2ccc3c(c2)OCCO3)cc1,2%
Cc1n[nH]c(=O)nc1N1CCc2ccccc2C1,i
Fc1ccc(C2=NN(c3ccc(Cl)cc3)C(c3cccs3)C2)cc1 (centres undefined),5.6µg/mL*
Cc1ccccc1CSCCNC(=O)c1ccc(C)c([N+](=O)[O-])c1,i
CCN(C(=O)CC(C)(C)C)c1ccccc1,i
COc1ccc(S(=O)(=O)NC(C)C(=O)Nc2ccc(I)cc2)cc1 (centres undefined),0%

Next part
Compound,Mtb growth
CCN(CC)CC(=O)Nc1ccc(Br)cc1[N+](=O)[O-],i
CN1CCN(NC(=O)c2ccc(-c3ccccc3)cc2)CC1,i
CCCN(Cc1ccccc1)C(=O)Nc1ccc2c(c1)nnn2C,i
O=C(CSc1nc2ccccc2s1)Nc1ccccc1N1CCOCC1,?
Clc1ccc(Nc2nc(-c3ccccn3)cs2)nc1,<0.1µg/mL*
O=C(Nc1ccccc1-c1nc2ccccc2s1)c1ccc(-c2ccccc2[N+](=O)[O-])o1,6%
CCSc1nc(C2CC2)cc(-c2ccco2)c1C#N,6%
O=C1c2oc3ccccc3c(=O)c2C(c2ccc(F)cc2)N1Cc1ccccc1 (centres undefined),i

More records.
Compound,Mtb growth
Cc1ccc(C(=O)NC2CCC(NC(=O)c3ccc(C)cc3)CC2)cc1 (centres undefined),i
COC(=O)c1ccc(N2CCN(C)CC2)c(NC(=O)c2cc(Cl)c(OC)c(Cl)c2)c1,i
O=C1NC(=O)C(c2ccc(Cl)cc2)N1 (centres undefined),i
CC(=O)Cn1c(=O)c2c(nc3n2CCN3c2cccc(C)c2)n(C)c1=O,i
COC(=O)c1cccc(NC(=S)Nc2cc(Cl)ccc2OC)c1,i
Cc1c(OCC(=O)c2cccc([N+](=O)[O-])c2)ccc2c3c(c(=O)oc12)CCC3,i
O=C(O)C1C2C=CC(C2)C1C(=O)N1CCCC1 (centres undefined),i
CCOc1ccccc1NC(=O)c1ccc2c(c1)C(=O)N(C)C2=O,i

(cont.)
Compound,Mtb growth
CCC1(C)Cc2c(sc3nnn(CC(=O)c4ccccc4)c(=O)c23)CO1 (centres undefined),i
Cc1cnc(NCCc2ccccc2)s1,?
COCC(=O)NNC(=S)Nc1ccc(F)cc1F,i
Cc1cccc(C)c1NC(=S)NCCCN1CCc2ccccc2C1,1%
O=C(Nc1ccccc1Br)C1CCN(S(=O)(=O)c2ccc(Cl)cc2)CC1,i
Cc1ccc(C(=O)N2CC3(C)CC2CC(C)(C)C3)cc1 (centres undefined),0%
O=C(Cn1cc(C(=O)C2CC2)c2ccccc21)NC1CCCCCC1,i
COc1cccc(NC(=O)c2ccc(N(Cc3ccc(C)cc3)S(C)(=O)=O)cc2)c1,3%

Carrying on.
Compound,Mtb growth
Cc1ccc(S(=O)(=O)N(CC(=O)N2CCCCC2)c2ccccc2Cl)cc1,i
O=C(Cn1nc(C(F)(F)F)c2c1CCCCC2)Nc1ccc(S(=O)(=O)N2CCCC2)cc1,3%
CN1CCN(CCCOc2ccc3ccccc3c2Br)CC1,i
O=C(Nc1ccc(F)cc1)c1ccc(-c2cc(Cl)ccc2Cl)o1,i
Cc1ccc(-c2nnc(Nc3ccc(C(=O)Nc4ccccc4)cc3)c3ccccc23)cc1S(N)(=O)=O,2%
Cc1cc(I)ccc1NC(=O)CN(c1cc(Cl)ccc1C)S(C)(=O)=O,i
c1ccc(CCCN2CCN(Cc3cccnc3)CC2)cc1,i
Cc1cccc(OCC(=O)Nc2sc(Cc3ccccc3)c(C)c2C(N)=O)c1,i

9 consecutive compounds from above, for reference:
Compound,Mtb growth
COc1cccc(NC(=O)c2ccc(N(Cc3ccc(C)cc3)S(C)(=O)=O)cc2)c1,3%
Cc1ccc(S(=O)(=O)N(CC(=O)N2CCCCC2)c2ccccc2Cl)cc1,i
O=C(Cn1nc(C(F)(F)F)c2c1CCCCC2)Nc1ccc(S(=O)(=O)N2CCCC2)cc1,3%
CN1CCN(CCCOc2ccc3ccccc3c2Br)CC1,i
O=C(Nc1ccc(F)cc1)c1ccc(-c2cc(Cl)ccc2Cl)o1,i
Cc1ccc(-c2nnc(Nc3ccc(C(=O)Nc4ccccc4)cc3)c3ccccc23)cc1S(N)(=O)=O,2%
Cc1cc(I)ccc1NC(=O)CN(c1cc(Cl)ccc1C)S(C)(=O)=O,i
c1ccc(CCCN2CCN(Cc3cccnc3)CC2)cc1,i
Cc1cccc(OCC(=O)Nc2sc(Cc3ccccc3)c(C)c2C(N)=O)c1,i

Further results:
Compound	Mtb growth
COc1ccc(OC(C)C(=O)Nc2cccc3ccccc23)cc1 (centres undefined)	i
OCCNCCCSc1ccc(Cl)cc1	i
COCCCn1c(=NC(=O)c2cccnc2)c(C#N)cc2c(=O)n3ccccc3nc21	i
CC1=C(C(=O)Nc2ccccc2)C(c2ccc(Cl)c(Cl)c2)n2nnnc2N1 (centres undefined)	0%
COc1ccc(C(=O)COc2cc3oc(=O)cc(-c4ccccc4)c3cc2Cl)cc1OC	i
Cc1ccc(NS(=O)(=O)c2ccc(NS(C)(=O)=O)cc2)cc1C	i
CC(C)c1ccccc1NC(=O)CSCc1ccc(Cl)cc1	i
O=S(=O)(NCC1(c2ccccc2)CCOCC1)c1ccccc1	i
Cc1ccccc1CN(c1ccc(C(=O)NCCc2ccccc2)cc1)S(C)(=O)=O	i
COc1ccc2c(c1)c(=O)oc1c(C)c(OCC(=O)N3CCOCC3)ccc12	i
O=C(c1ccccc1NS(=O)(=O)c1ccc(Cl)s1)N1CCCCCC1	i
O=C(NCCCn1cccn1)C1CCC1	0%
Cc1cc(=O)oc2cc(OCC(N)=O)c(Cl)cc12	i
COc1ccc(S(=O)(=O)NCc2ccc(Cl)cc2Cl)cc1Cl	i
CNC(=O)COc1ccc(Cl)cc1C	i
C=CCOc1ccc(Br)cc1CNc1cccc(C(=O)O)c1	0%
Cn1c(C=O)ccc1-c1cccc([N+](=O)[O-])c1	1%
CCc1cc(OCCN2C(=O)NC(C)(C)C2=O)ccc1Cl	i
O=[N+]([O-])c1ccc(NC(=S)Nc2ccn(Cc3ccccc3)n2)cc1	i
Cc1ccnc(NCC(O)COc2ccc(Cl)cc2)c1 (centres undefined)	5%
COCCCNC(=S)NNC(=O)c1ccccc1Br	i
CCOC(=O)C1CCN(C(=O)CN(c2ccc(C)cc2C)S(C)(=O)=O)CC1	i
Cc1ccc(N(CCCCN2C(=O)c3ccccc3C2=O)C(=O)c2ccc([N+](=O)[O-])cc2)cc1	6%
O=C(CSc1nnc(-c2cccnc2)n1Cc1ccco1)c1ccccc1	i
COc1ccc(CNC(=O)CN(Cc2cccc(C)c2)S(=O)(=O)c2ccc(Cl)cc2)cc1	14%

(next part)
Compound	Mtb growth
CCOC(=O)C1CCCN(C(=O)CS(=O)(=O)Cc2ccccc2)C1 (centres undefined)	i
CC(C)(Oc1ccc(Cl)cc1)C(=O)NCc1ccc(S(N)(=O)=O)cc1	i
COc1ccc(C(=O)Oc2ccc3c(-c4ccccc4)cc(=O)oc3c2)cc1	i
Cc1ccc(S(=O)(=O)Nc2ccc(F)cc2)c([N+](=O)[O-])c1	i
CSC1=C(C#N)C(c2ccc(C)cc2)C2=C(CCCC2=O)N1 (centres undefined)	i
COc1ccc(NC(=O)CSc2nnnn2C)cc1	3%
O=S1(=O)CC2C(C1)N(c1ccc(F)cc1)C(=S)N2c1ccccc1 (centres undefined)	i
O=S(=O)(Nc1ccccc1-c1ccccc1)c1ccc2c(c1)OCCO2	0%
O=C(COc1ccc2ccccc2c1)Nc1cccc(NC(=O)c2ccco2)c1	i
Cc1cc(C)c(NC(=O)c2ccccc2N(C)S(=O)(=O)c2ccccc2)c(C)c1	2%
Cc1cc(=O)[nH]c2c1sc1[nH]c(=O)ccc12	i
Cc1ccnc(NC(=O)c2cc3sc4ccccc4c3s2)c1	i
Cc1ccc(S(=O)(=O)N(CC(=O)Nc2ccc(C(N)=O)cc2)c2ccc(Br)cc2)cc1	i
COCCNC(=O)C12CC3CC(C1)CC(c1ccccc1)(C3)C2	i
Cc1ccc(CNc2ccc(CNc3ncn[nH]3)cc2)cc1	13%
O=C(CSc1nc2ccccc2c(=O)n1CCc1ccccc1)NCc1ccco1	i
Cc1oc2ccc(OCC(=O)OCc3ccccc3)cc2c1C(=O)OC(C)C	9.1µg/mL*
O=C(Nc1ccccc1OC(F)F)c1ccc([N+](=O)[O-])o1	6.3µg/mL*
COc1ccc(OC)c(CC2C(=O)N(C)C(=O)N(C)C2=O)c1	i
CCc1ccc(N(CC(=O)Nc2ccc(S(=O)(=O)N3CCCCCC3)cc2)S(C)(=O)=O)cc1	9%
Cc1cc(I)ccc1NC(=S)NC(=O)c1ccco1	5%
N#Cc1c(NC(=O)c2ccncc2)sc2c1CCC2	i
Cc1cc2ccccc2n2c(SCC(=O)NCc3ccco3)nnc12	i

Compound activity (PubChem)
